VDR inhibitor: blocks the human vitamin D receptor; VDR-SRC2-3 peptide fluorescence polarization, 2 h; Potency, µM, for the others: max response, negative = inhibition, hits mostly inhibitors; AID 504847; P11473; hit rate 0.93% among 400,000; active = well fitted inhibition curve with a large enough effect; inconclusive = small, poorly fitted or top-dose-only effect, or another doubt; inactive = no such curve, though single readings can be large or run the other way; also: series mostly up to about 120 µM
Target sequence (P11473 whole entry, looked up): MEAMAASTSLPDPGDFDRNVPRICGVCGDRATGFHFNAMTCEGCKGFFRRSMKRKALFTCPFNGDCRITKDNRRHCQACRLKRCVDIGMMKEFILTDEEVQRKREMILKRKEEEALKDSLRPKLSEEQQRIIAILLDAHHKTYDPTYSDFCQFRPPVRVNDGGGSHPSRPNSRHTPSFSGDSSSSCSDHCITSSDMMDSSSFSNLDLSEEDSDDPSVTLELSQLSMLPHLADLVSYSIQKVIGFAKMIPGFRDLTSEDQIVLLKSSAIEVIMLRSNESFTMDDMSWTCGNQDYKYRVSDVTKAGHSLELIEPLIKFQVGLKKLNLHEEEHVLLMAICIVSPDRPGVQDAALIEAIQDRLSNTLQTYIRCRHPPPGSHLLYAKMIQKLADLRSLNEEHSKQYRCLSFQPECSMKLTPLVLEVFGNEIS
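Fluorescence polarization assay of small-molecule disruption of VDR binding to coregulator peptide SRC2-3. Compounds and controls pin-transferred, then read after 2 h incubation at ambient room temperature.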
Active calls of the source: *; ? = inconclusive. % is scaled to controls: 0 for no effect and ±100 for the full control effect; potency is read from the fitted curve at half-maximal effect. Some of the compounds tested; count on the stated rates, not on these rows.

SMILES	VDR inhibitor
O=C(Cc1ccccc1F)Nc1nc(-c2ccc(F)c(F)c2)cs1	-5%
COc1ccc(C(=O)N/C(=C\c2ccc3c(c2)OCO3)C(=O)Nc2cccc(C(=O)O)c2)cc1	-23%
Cc1nc(NC(=O)CN2CCOCC2)sc1C(=O)N(C)C	2%
COC(=O)c1nc[nH]c1C(=O)OC	-8%
CC1=CC2=NC(=O)/C(=C\c3cccn3CCOc3cccc(C)c3)C(=N)N2O1	-6%
Cc1c(NC(=O)c2sc3ccccc3c2Cl)cccc1-c1nc2ccccc2o1	6%
COc1ccc(-c2nc(-c3ccccc3)ncc2S(C)(=O)=O)cc1	?
Cc1ccc2c(c1)C1CN(C)CCC1N2C(=S)Nc1ccc(OC(F)F)cc1 (stereo not drawn)	-13%
CCc1cc(C(=O)c2ccc(OC)cc2)c(N)s1	-17%
Cn1cc2ccc([N+](=O)[O-])cc2n1	-8%
Cc1ccc(N/C(SCc2ccccc2C)=C(/C#N)C(=O)NCc2ccco2)cc1C	5%
O=C(CN(C(=O)C1CSC(=O)C1)c1ccc(F)cc1)NCc1ccc2c(c1)OCO2 (stereo not drawn)	-20%
NS(=O)(=O)c1ccc(CNC(=O)Cc2ccccc2F)cc1	-20%
O=C1CC(c2ccc(Cl)cc2)CC(=O)C1CS(=O)(=O)c1ccccc1 (stereo not drawn)	?
O=C(Oc1ccccc1C(=O)Oc1ccccc1)c1cccnc1	-1%
CCc1nc(NC(=O)c2sc(C)nc2C)sc1C(=O)OC	-8%
COc1ccc(C2NC(c3ccc(OC)cc3)C(c3ccccc3)C(=O)C2c2ccccc2)cc1 (stereo not drawn)	-24%
O=c1c(C(c2ccccc2)c2c(O)sc3ccccc3c2=O)c(O)sc2ccccc12	4%
Cc1ccc(N(CC(=O)Nc2c(C)n(C)n(-c3ccccc3)c2=O)S(C)(=O)=O)cc1C	-3%
O=C(Nc1ccccc1)c1nc[nH]c1C(=O)NCCCCNC(=O)c1[nH]cnc1C(=O)Nc1ccccc1	-11%
CCOC(=O)N1CCN(C(=O)CC(=O)Nc2ccc3nc4n(c(=O)c3c2)CCCCC4)CC1	-2%
CCOC(=O)C1=C(C)Nc2ccccc2N=C1NC(=O)C(CC)c1ccccc1 (stereo not drawn)	5%
CCOC(=O)c1c(Nc2ccc(O)cc2)nnc(-c2ccccc2)c1-c1ccccc1	-14%
COc1cccc(-c2cc(C(=O)Nc3c(C)n(C)n(-c4ccccc4)c3=O)no2)c1	-10%
Cn1c(SCC(=O)Nc2ccc3c(c2)OCCO3)nnc1-c1cccnc1	2%
COc1ccccc1CN1CCCC2(CCN(C(=O)c3cccn3C)CC2)C1	1%
Cc1nc2sc(C(N)=O)c(N)c2c(-c2ccc(Br)cc2)c1C(=O)Nc1ccc(Cl)cc1	-20%
CCCCN(C(=O)CCC(=O)Nc1cc(C)on1)C(C(=O)NC1CCCC1)c1ccc(F)cc1 (stereo not drawn)	-6%
CCOc1ccc(CNC(=S)NCc2ccc(OCC)cc2)cc1	-5%
CC1=C(C(=O)Nc2ccccc2)C(c2cccs2)n2nnnc2N1 (stereo not drawn)	-6%
CC(C)=CCC/C(C)=C/CNC(=O)C[C@H]1C[C@H](C(=O)N2CCCCC2)[C@@]2(CCc3ccccc3)c3[nH]c4cc(CCC(=O)N(C)C)ccc4c3CCN2C1=O	3%
N#C/C(=N\Nc1ccc(Cl)cc1)C(=O)c1ccsc1	-14%
O=C(CCN1C(=O)c2ccccc2C1=O)OCn1nnc2ccccc2c1=O	4%
O=C(CCC(=O)N(CC(=O)NC1CCCC1)Cc1ccccc1)Nc1nccs1	3%
Cc1ccoc1C(=O)Nc1cccc2ccccc12	0%
O=C(NCCc1ccco1)C(=O)NCCC1CCCCN1S(=O)(=O)c1ccccc1 (stereo not drawn)	2%
CCOC(=O)c1c(NC(=O)CSc2nnc(C)o2)sc(C)c1C	-6%
CCOCC(=O)Nc1cccc(OC)c1	-17%
Cc1ccc(S(=O)(=O)NN=C2CCN(Cc3ccccc3)CC2)cc1	-7%
CCO[C@H]1OC(C(=O)N2CCN(C)CC2)=C[C@@H](c2csc3ccccc23)[C@@H]1CCCO	-1%
CCOC(=O)CN1C(=O)S/C(=C\c2ccc(-c3ccc(C(=O)O)c(Cl)c3)o2)C1=O	?
N#Cc1ccccc1NC(=O)C1SC(=Nc2ccccc2)C(C(=O)Nc2ccc(Cl)cc2)=C1N (stereo not drawn)	-16%
CCN(CC)c1ccc2oc(=O)c(C)nc2c1	?
COc1ccc(CNC(=O)C2(CC(=O)NC(C)(C)C)CCCC2)cc1	-13%
COc1ccc(CC(=O)OCC(=O)NC2CCCC(C)C2C)cc1OC (stereo not drawn)	3%

Ordered by the number under VDR inhibitor (low to high): 3 from the list above.
SMILES	VDR inhibitor
N#Cc1ccccc1NC(=O)C1SC(=Nc2ccccc2)C(C(=O)Nc2ccc(Cl)cc2)=C1N (stereo not drawn)	-16%
CCOC(=O)c1c(NC(=O)CSc2nnc(C)o2)sc(C)c1C	-6%
Cc1ccoc1C(=O)Nc1cccc2ccccc12	0%

Next compounds.
SMILES	VDR inhibitor
COc1ccc(-c2cc(C(=O)Oc3ccccc3)c3cc(C)ccc3n2)cc1	-8%
Nc1c(C(=O)Nc2ccccc2)sc2nc3c(cc12)CN(Cc1ccccc1)CC3	-4%
CNS(=O)(=O)c1ccc(NC(=O)c2ccc(Cl)cc2Cl)cc1	4%
CC(=O)c1ccc(OCCCC(=O)Nc2cccc(S(=O)(=O)N(C)C)c2)cc1	3%
O=[N+]([O-])c1cccc(C2CC(c3ccccc3)=NN2c2ccccc2)c1 (stereo not drawn)	?
c1ccc(-n2cnc3cc(NCc4cccs4)ccc32)cc1	3%
COc1ccccc1/C=N/Nc1cc(N(C)C)nc(N(C)C)n1	-9%
NC(=O)CNC1CC(=O)N(CCc2ccccc2)C1=O (stereo not drawn)	3%
O=C(NC1CCCc2ccccc21)c1ccc(Br)cc1 (stereo not drawn)	-10%
O=S(=O)(NCCSc1ccccn1)c1ccc(Br)cc1	7%
Cc1ccc(S(=O)(=O)CCc2nnc(NC(=O)c3cccs3)s2)cc1	-11%
COC(=O)c1ccc(/C=C2/SC(=S)N(CCC(=O)NCCCN3CCOCC3)C2=O)cc1	?
O=C(CN1CCN(c2ccccc2O)CC1)Nc1ccc2c(c1)OCCCO2	21%
Cc1cc(NC(=O)CSCC(=O)Nc2nc3c(C)cccc3s2)no1	-22%
COCC(=O)Nc1cc(=O)n(C)c(=O)n1C	-14%

Random excerpt: 7 records from the list, in no set order.
SMILES	VDR inhibitor
COc1ccccc1/C=N/Nc1cc(N(C)C)nc(N(C)C)n1	-9%
COC(=O)c1ccc(/C=C2/SC(=S)N(CCC(=O)NCCCN3CCOCC3)C2=O)cc1	?
CNS(=O)(=O)c1ccc(NC(=O)c2ccc(Cl)cc2Cl)cc1	4%
Cc1cc(NC(=O)CSCC(=O)Nc2nc3c(C)cccc3s2)no1	-22%
COc1ccc(-c2cc(C(=O)Oc3ccccc3)c3cc(C)ccc3n2)cc1	-8%
Cc1ccc(S(=O)(=O)CCc2nnc(NC(=O)c3cccs3)s2)cc1	-11%
Nc1c(C(=O)Nc2ccccc2)sc2nc3c(cc12)CN(Cc1ccccc1)CC3	-4%

(more compounds)
SMILES	VDR inhibitor
COc1ccc(-n2ncc(C(=O)N3CCN(C4CCCCC4)CC3)c2C2CCN(C(=O)OC(C)(C)C)CC2)cc1	-2%
CCN(CC(=O)Nc1c(F)cccc1F)C(=O)/C=C/c1ccc(C)o1	-15%
COc1cccc(NC(=O)N2CCCC2)c1	-19%
Cc1ccc(C(=O)NCc2ccco2)cc1S(=O)(=O)N1CCCCC1	-22%
CNS(=O)(=O)c1c(C)cc(C)c(N(C)S(=O)(=O)c2ccccc2)c1C	-9%
Cc1csc(NC(=O)CN2CCCCCC2)n1	-6%
Cc1ccc(C)c(N2CCN(C(=O)CCCCCn3c(=S)[nH]c4ccc(N5CCOCC5)cc4c3=O)CC2)c1	-19%
COc1ccc(S(=O)(=O)N(CCc2ccccc2)CC(=O)Nc2ccc(C)c(C)c2)cc1OC	-6%
O=C(Cc1cccc(NC(=O)C2CCCN(C(=O)C3CC3)C2)c1)Nc1ccc(C(=O)N2CCCCC2)cc1 (stereo not drawn)	-20%
CC(C)CCNC(=O)C1CC(c2ccc(C(F)(F)F)cc2)=NO1 (stereo not drawn)	1%
Cc1ccc(-c2cc(C(=O)Nc3c(C(=O)c4ccccc4)oc4ccccc34)no2)cc1F	8%
Cc1nn(-c2ccccc2)c(C)c1[N+](=O)[O-]	-16%
CC(C)C(=O)Nc1cccc(C(=O)NCCc2ccc(S(N)(=O)=O)cc2)c1	-3%
Clc1nc(NCCc2ccccc2)c2cn[nH]c2n1	-2%
Cc1cnc(C(=O)Nc2ccc(N3CCCCC3)cc2)cn1	7%
Cc1ccc(-c2csc(NC(=S)NC(=O)c3cccs3)n2)cc1	-15%
C#CCOc1ccc(-c2nnc(Nc3cccc(C)c3)c3ccccc23)cc1	19%
Cc1ccc(OCCC(=O)N(CCC(C)C)c2c(N)n(Cc3ccccc3)c(=O)[nH]c2=O)cc1	-7%
CC(C)Cn1c(SC(C)C(=O)Nc2ccc(N3CCOCC3)cc2)nc2ccccc21 (stereo not drawn)	-1%
CN1CCN(C(=O)CCc2nc3ccccc3c(=O)[nH]2)CC1	5%
O=C(CN(Cc1ccc(F)cc1)C(=O)c1csnn1)NC1CCCC1	28%
CCOC(=O)CN(C(=O)CNC(=O)c1cccs1)C(C(=O)NC1CCCCC1)c1cccnc1 (stereo not drawn)	-2%
Cc1cc(C)cc(NS(=O)(=O)c2ccc(-n3cccn3)cc2)c1	16%
CC1=CCC2([N+](=O)[O-])CN(CC(=O)O)CC1([N+](=O)[O-])C2 (stereo not drawn)	-7%
COc1ccc(CN(C(=O)c2ccc3c(c2)OCCO3)C(C(=O)NC2CCCCC2)c2ccc3ncccc3c2)cc1 (stereo not drawn)	14%
CCCS(=O)(=O)n1nc(-c2ccccc2)cc1N	-25%
COc1cc(CCCN2C(=O)C(=O)NC[C@@H]2C(C)O)cc(OC)c1OC (stereo partly drawn)	-28%
CCCNc1nc(OCC(F)(F)F)nc(OCC(F)(F)F)n1	11%
CC(=O)c1c(C)[nH]c(C(=O)Nc2nccs2)c1C	-5%
CN(CC(=O)NC1CCCCC1)S(=O)(=O)c1ccc2c(c1)c(=O)n(C)c(=O)n2C	22%

An excerpt of these results, bar-delimited.
SMILES | VDR inhibitor
CCOC(=O)CN(C(=O)CNC(=O)c1cccs1)C(C(=O)NC1CCCCC1)c1cccnc1 (stereo not drawn) | -2%
CN(CC(=O)NC1CCCCC1)S(=O)(=O)c1ccc2c(c1)c(=O)n(C)c(=O)n2C | 22%

Additional compounds
SMILES	VDR inhibitor
CCOC(=O)c1ccc(NC(=O)CN(C)S(=O)(=O)c2ccc(OC)cc2)cc1	8%
O=C(/C=C/c1ccccc1)Nc1cccc(C(=O)NC2CC2)c1	12%
O=C(O)[C@H]1C(=CCO)O[C@H]2CC(=O)N12	0%
COc1cc(C2c3cc4c(cc3C(O[C@@H]3OC5COC(c6cccs6)OC5C(O)C3O)C3COC(=O)C23)OCO4)cc(OC)c1O (stereo partly drawn)	9%
O=C(Nc1ccc2c(c1)CCC2)Nc1ccccc1Cl	5%
CCS(=O)(=O)c1ncc(N(Cc2cccc(F)c2)Cc2ccco2)c(C(=O)Nc2ccccc2Cl)n1	-1%
CC(=O)c1ccc(NC(=O)C(C)OC(=O)CCN=C2NS(=O)(=O)c3ccccc32)cc1 (stereo not drawn)	2%
COC(=O)c1ccccc1NC(=O)CCCCCn1nnc2ccccc2c1=O	-6%
Cc1ccc2c(c1)N(C(=O)c1ccco1)C(C)(C)c1ssc(=S)c1-2	-6%
CCCN(C(=O)NCc1noc2ccc(C)cc12)c1ccc(Cl)c(Cl)c1	-3%
CCCCOCCCNC(=O)c1cccs1	-1%
O=[N+]([O-])c1ccc(COc2ncnc3ccccc23)cc1	-8%
COc1ccc(NC(=O)N2CC[C@@]3(CCCNC3)C2)cc1	-3%
CCCN(CC(=O)Nc1ccc(F)c(F)c1F)CC(=O)Nc1c(C)n(C)n(-c2ccccc2)c1=O	0%
Cn1c(SCC(=O)Nc2nc3ccccc3s2)ncc(C(=O)Nc2ccc(F)cc2)c1=O	5%
Cn1c(N)c(S(=O)(=O)NCc2ccccc2)c(=O)n(C)c1=O	-8%
O=C(O)CSCC(=O)Nc1ccc(S(=O)(=O)N2CCCCC2)cc1	-1%
O=c1ccc2c(OCCCCc3ccccc3)c3ccoc3cc2o1	1%
Nc1c(-c2nc(-c3ccc(Cl)cc3)no2)nnn1-c1ccc(C(F)(F)F)c(Cl)c1	11%
CSc1nnc(-c2ccccc2SC)o1	-7%
CC1CN(C(=S)Nc2ccccc2F)CC(C)O1 (stereo not drawn)	-12%
CC(C#N)Sc1nnc(-c2ccccc2F)n1C1CC1 (stereo not drawn)	-1%
CCOC(=O)c1ccc(NC(=O)CCc2nnc3ccc(N4CCCC4)nn23)cc1	-9%
Cc1ccc[n+](C(C)C(=O)Nc2ccc(C)c([N+](=O)[O-])c2)c1 (stereo not drawn)	5%
Cc1ccccc1OCCC(=O)N(CC(=O)Nc1ccccc1C(F)(F)F)Cc1ccco1	-20%
COc1ccc(NC(=O)c2ccco2)cc1NC(=O)c1ccc(C)c(C)c1	-12%
COCCNc1ncnc2ccc(-c3cccc(OC)c3)cc12	8%
O=S(=O)(c1ccc(Br)s1)N1CCc2ccccc2C1	-8%
COc1ccc(/C=N/NS(=O)(=O)c2ccc(C)cc2)cc1	5%
CCSc1nnc(NC(=O)C2CC(=O)N(Cc3ccc(C)cc3)C2)s1 (stereo not drawn)	11%
COc1ccc(C(CC(=O)O)c2cc(OC)c(OC)c(OC)c2)cc1OC (stereo not drawn)	-11%
Cc1cccc(N=C2NC(=O)/C(=C/c3cccn3C)S2)c1	-9%
COc1ccc(OC)c(CCNC(=O)CCn2c(=O)c3cccn3c3ccc(F)cc32)c1	-3%
CCCC1(CC)C(=O)NC(=O)N=C1N (stereo not drawn)	2%

Screening data as filed in PubChem.
